Screening data as filed in PubChem BioAssay.
RanGTP-Imp inh = disruptors of Ran-importin-beta complex formation – biochemical, FRET, CFP-Ran, YFP-importin-beta, homogeneous, primary screen; inhibition, % (test concentration not listed); actives 1.1% (n = 300,000); AID 2216; cell-free CFP-Ran/YFP-importin-beta FRET ratio;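 active = most replicates above 15%; inconclusive = exactly half above 15%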;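 also: 0% = DMSO wells and 100% = Ran loaded with GDP instead of GTP; wells of about 40 µL received 100 nL stock; the first replicate is given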
LANA-H2B inh = blocks KSHV LANA binding to histone H2A/H2B | actives 0.6% (n = 320,000) | Q9QR71 | cell-free LANA-H2A/H2B peptide, fluorescence polarization | inhibition, % (no concentration beside the values); in the data active = inhibition mostly above about 10%, no sharp cut-off; inactive = mostly below about 6.7%;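 also: stock transfer was 7.5 nL into about 10 µL; 0% = median of vehicle wells and 100% = median of positive control wells; one replicate is shown; the record names a cut of 25% in any replicate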
Target sequence (Q9QR71 whole entry, looked up): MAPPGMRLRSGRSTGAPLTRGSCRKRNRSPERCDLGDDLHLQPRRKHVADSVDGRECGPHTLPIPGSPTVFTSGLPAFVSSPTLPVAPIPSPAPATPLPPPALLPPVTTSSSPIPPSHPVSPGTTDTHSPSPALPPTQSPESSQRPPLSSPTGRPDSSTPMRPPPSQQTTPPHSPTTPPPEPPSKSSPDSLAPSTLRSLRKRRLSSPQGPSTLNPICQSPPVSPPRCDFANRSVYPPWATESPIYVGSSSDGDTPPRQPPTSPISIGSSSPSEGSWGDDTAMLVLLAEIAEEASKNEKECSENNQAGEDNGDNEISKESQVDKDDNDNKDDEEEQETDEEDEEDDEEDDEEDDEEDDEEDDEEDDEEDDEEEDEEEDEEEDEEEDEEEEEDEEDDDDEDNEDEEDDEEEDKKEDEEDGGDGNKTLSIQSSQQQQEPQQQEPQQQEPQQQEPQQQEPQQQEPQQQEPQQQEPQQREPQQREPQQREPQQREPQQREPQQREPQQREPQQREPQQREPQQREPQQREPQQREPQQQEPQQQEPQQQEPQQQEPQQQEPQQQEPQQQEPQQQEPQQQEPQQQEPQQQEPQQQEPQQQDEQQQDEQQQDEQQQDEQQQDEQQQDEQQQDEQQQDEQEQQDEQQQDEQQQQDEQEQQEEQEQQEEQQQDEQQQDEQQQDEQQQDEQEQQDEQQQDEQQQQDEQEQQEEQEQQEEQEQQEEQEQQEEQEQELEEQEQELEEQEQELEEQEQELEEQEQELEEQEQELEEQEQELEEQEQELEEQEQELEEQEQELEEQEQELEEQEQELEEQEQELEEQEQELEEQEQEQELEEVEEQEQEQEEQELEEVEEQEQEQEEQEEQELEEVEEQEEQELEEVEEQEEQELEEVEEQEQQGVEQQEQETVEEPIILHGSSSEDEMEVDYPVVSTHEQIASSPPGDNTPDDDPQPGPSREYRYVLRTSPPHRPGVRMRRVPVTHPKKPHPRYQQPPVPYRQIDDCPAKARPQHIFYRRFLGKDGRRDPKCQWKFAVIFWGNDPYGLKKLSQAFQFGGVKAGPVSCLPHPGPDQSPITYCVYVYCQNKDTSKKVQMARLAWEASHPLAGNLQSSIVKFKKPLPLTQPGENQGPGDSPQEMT
Calb FLC = affects C. albicans growth with fluconazole; C. albicans CaCi-2 (fluconazole-resistant clinical isolate) + fluconazole, Alamar Blue growth, 48 h; growth inhibition, % (no concentration beside the values); actives 0.57% (n = 300,000); AID 1979;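 active = most replicates above 75%; inconclusive = exactly half above 75%; inactive = most below 75%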;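 also: all wells also contain fluconazole at 8 µg/ml as a sub-toxic cotreatment; 0% = median of DMSO wells and 100% = median of geldanamycin control wells; wells of about 8 µL received 7.5 nL stock; the first replicate is given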
B2AR ag = human beta-2 adrenergic receptor agonism by FAP | response, % (no concentration beside the values) | P07550 | actives 0.43% (n = 340,000) | Am2.2-beta2AR cells, FAP receptor internalization, flow cytometry; reference of the scale not given here;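 active = response above a set limit, near 3 SD of response in nonfluorescent compounds, cut at about 42% in these data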;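 also: stock transfer was 100 nL into about 11 µL; a reference agonist was the positive control; negative values mostly stem from fluorescent compounds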
A1 inh = inhibitors of the anti-apoptotic protein A1, read as caspase activation; MEF A1-2A-BIM cells, Caspase-Glo 3/7 luminescence, 3 h; percent of clofoctol response, vehicle zero; caspase activation, % (test concentration not listed); actives 0.066% (n = 330,000); AID 2462;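 active = over half of replicate activation scores above 10%, or exactly half above 10 with the replicate mean above 10; inconclusive = replicate mean below 10 yet half the replicates above 10; inactive = over half of replicates below 10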;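 also: wells of about 30 µL received 50 nL stock; many hits fall short of the cut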
Beta apoptosis = beta cell apoptosis inhibition; INS-1E cytokine-induced death, ATP luminescence, 48 h; percent of positive-control rescue, neutral wells zero; protection from apoptosis, % (concentration not given with the values); actives 0.8% (n = 300,000);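 active = all replicates at 75% or more, or half of them and the mean; inconclusive = half reach 75% but not the mean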;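 also: 0% = cytokine-treated negative control wells and 100% = positive control rescue; higher means more ATP so stronger rescue from cytokine killing; wells of about 40 µL received 100 nL stock; the first replicate is given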
T cruzi repl = T. cruzi replication inhibition | T. cruzi beta-gal in NIH3T3, luminescence, 90 h | inhibition, % (concentration not given with the values) | actives 1.4% (n = 300,000) | AID 1885;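 active = mean inhibition across valid replicates above about 55%, limit read from the data; inconclusive = mean below that limit but half or more replicates reach it; inactive = mean below it, under half of replicates reach it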;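 also: signal also drops with host cell toxicity which is not excluded here; 0% = plate median of DMSO wells and 100% = zero luminescence signal; higher percent means less beta-gal luminescence so fewer parasites; stock transfer was 50 nL into about 50 µL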
UCH37 inh = inhibitors of human deubiquitinating enzyme UCH37; Q9Y5K5; purified proteasome/UCH37, Ub-AMC cleavage fluorescence; inhibition, % (concentration not given with the values); actives 0.33% (n = 330,000); AID 588478;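 active = mean of two replicates above 20%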;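 also: 0% = compound-free wells with enzyme and 100% = wells lacking proteasome; stock transfer was 100 nL into about 20 µL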
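System: Proteasome-associated human UCH37 deubiquitinase; Input: 0.15 nM proteasome in added enzyme buffer; Also added: Ub-AMC substrate from 1 µM stock; Incubation: 30 min compound-proteasome preincubation then 25 min substrate reaction, room temperature; Detection: fluorescence, ex 355 nm, em 460 nm; Read-out: % inhibition of Ub-AMC cleavage fluorescence; Benchmarks: no-proteasome and no-compound wells.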
The depositor's hits bear a star; ? = inconclusive; . = no result given.

SMILES | RanGTP-Imp inh | LANA-H2B inh | Calb FLC | B2AR ag | A1 inh | Beta apoptosis | T cruzi repl | UCH37 inh
CC(=O)OCC1=C(C(=O)O)N2C(=O)C(NC(=O)C(C)Cn3nc(C)c(Cl)c3C)C2SC1 (configuration not stated) | 0.2 | 1.7 | 12 | 9 | 0.0 | -2 | -15 | 4.3
O=C(CSCc1ccccc1)NC1CCSC1=O (configuration not stated) | 10 | 3.4 | ? | -4 | 2.5 | -3 | 16 | 1.3
CCOCCn1c(N(C)Cc2ccccc2)nc2c1c(=O)[nH]c(=O)n2C | 1.8 | 2.3 | 10 | -3 | -0.4 | . | 1 | 1.8
COc1ccc(NC(=O)N2CCCc3ccccc32)cc1OC | 2.6 | 0.0 | -7 | 6 | -0.8 | 1 | -1 | -0.2
CNC(=S)Nc1cccc(C(C)=O)c1 | -9.0 | 4.4 | -11 | -1 | -0.2 | -12 | 3 | 2.7
O=[N+]([O-])c1ccc(COP(=O)(O)OCc2ccc([N+](=O)[O-])cc2)cc1 | 0.7 | -0.5 | -3 | -2 | -0.5 | -6 | -12 | 1.0
C=CCNC(=O)NC(=O)COC(=O)/C(C#N)=C/c1cc(C)n(CCC(C)C)c1C | ? | -0.7 | 27 | -10 | -0.4 | 6 | 7 | -105
Cc1ccccc1-n1nc2c(c1NC(=O)c1cccc(F)c1)CS(=O)C2 (configuration not stated) | 0.4 | -5.6 | -11 | 3 | -0.2 | -2 | -4 | 3.5
O=C(Nc1ccc(C(=O)O)cc1)/C(=C\c1ccccc1)NC(=O)c1ccccc1 | 3.0 | -2.4 | -5 | 2 | -0.4 | -4 | -13 | 3.6
Cc1sc(NC(=O)c2ccco2)c(C(c2cccnc2)N2CCC(C)CC2)c1C (configuration not stated) | -2.0 | -1.3 | -5 | 6 | 0.0 | -1 | 72* | -4.1

Overlap with the part before: three entries, then new ones.
SMILES | RanGTP-Imp inh | LANA-H2B inh | Calb FLC | B2AR ag | A1 inh | Beta apoptosis | T cruzi repl | UCH37 inh
Cc1ccccc1-n1nc2c(c1NC(=O)c1cccc(F)c1)CS(=O)C2 (configuration not stated) | 0.4 | -5.6 | -11 | 3 | -0.2 | -2 | -4 | 3.5
O=C(Nc1ccc(C(=O)O)cc1)/C(=C\c1ccccc1)NC(=O)c1ccccc1 | 3.0 | -2.4 | -5 | 2 | -0.4 | -4 | -13 | 3.6
Cc1sc(NC(=O)c2ccco2)c(C(c2cccnc2)N2CCC(C)CC2)c1C (configuration not stated) | -2.0 | -1.3 | -5 | 6 | 0.0 | -1 | 72* | -4.1
COc1ccccc1Nc1nc(C)nc2c1oc1ccccc12 | 3.9 | 1.8 | 5 | -6 | -0.5 | 8 | 8 | .
COc1ccc(C(CC(=O)N2CCCC2)C(C)C)cc1 (configuration not stated) | -3.4 | -3.9 | 1 | 15 | 0.9 | . | -6 | 0.9
O=C1Nc2ccc([N+](=O)[O-])cc2C1(O)N1CCCCCC1 (configuration not stated) | -1.7 | 5.5 | 44 | 3 | 0.6 | -4 | -10 | 11
COCCCNC(=O)CN(CCc1ccccc1)S(=O)(=O)c1ccccc1 | -1.0 | -1.9 | -19 | -2 | 1.9 | -11 | -7 | 2.3
CCOCCn1c(SCc2c(F)cccc2Cl)nc2c1c(=O)[nH]c(=O)n2C | 1.9 | 1.8 | -7 | -7 | 0.2 | -4 | -9 | 2.4
COc1ccccc1-n1c([S-])c(C(=O)Nc2ccccc2C(F)(F)F)[n+]2ccc(C(=O)NCCO)cc12 | 20* | 2.1 | 0 | 4 | -0.1 | -4 | -2 | -4.2
CCn1cc(/C=C(\NC(=O)c2ccccc2)C(=O)NCCCN2CCOCC2)c2ccccc21 | 1.4 | 4.6 | -4 | 6 | 0.7 | 7 | -2 | 11
Cc1ccc(-c2cc(C(F)F)n3ncc(C(=O)N4CCN5CCCC5C4)c3n2)cc1 (configuration not stated) | 7.1 | -0.1 | -1 | -4 | 0.8 | 7 | 3 | -21
CCOC(=O)C1=C(C)Nc2nc(C)nn2C1c1ccc(OC)c(OC)c1 (configuration not stated) | -3.5 | -1.1 | 14 | -1 | 0.4 | -8 | -4 | 3.8
CCC(C(=O)OC)n1cnc2c(nnn2-c2cccc(OC)c2)c1=O (configuration not stated) | 0.5 | -6.5 | 1 | 2 | -0.1 | -8 | -4 | 2.9
CN(C)c1ccc(C(=S)N2CCN(S(=O)(=O)c3ccccc3)CC2)cc1 | 6.7 | -8.7 | -16 | 4 | 0.0 | -6 | 56* | 1.9
COc1cccc(-c2cc(C(=O)Nc3ccc([N+](=O)[O-])cn3)c3ccccc3n2)c1 | 4.1 | -2.4 | -11 | 4 | 0.8 | 7 | 43 | 4.7
Cc1ccc2cccc(OCC(=O)c3cc(C)n(Cc4ccco4)c3C)c2n1 | -2.0 | -0.1 | -6 | . | 0.0 | 3 | 8 | -2.2
O=C(CCc1ccccc1)Nc1nc2n(n1)C(c1ccccc1)CC(=O)N2 (configuration not stated) | 1.1 | 4.6 | -7 | -2 | 1.7 | 0 | -1 | 2.2
CCOc1ccc(C(C(=O)NC2CCCC2)N(Cc2ccccc2)C(=O)c2nsc(Cl)c2Cl)cc1 (configuration not stated) | 1.2 | 4.9 | 35 | 6 | 0.6 | 5 | 43 | 3.7
COc1ccc(O)c(/C=N/NC(=O)CCC(=O)Nc2cccc(C)c2)c1 | -0.1 | -3.7 | 70 | 2 | 2.0 | 9 | -11 | .
CC1(C2(O)CC(c3ccccc3)ON2)CCCCC1 (configuration not stated) | -0.1 | -1.2 | -19 | . | -0.7 | -6 | 4 | .
COc1cccc(N2CCN(C(=O)CN(c3cc(C)cc(C)c3)S(=O)(=O)c3c(C)noc3C)CC2)c1 | -0.9 | -4.7 | 16 | 1 | 0.4 | 3 | 25 | 0.1
O=C(Nc1ccc(S(=O)(=O)Nc2ncccn2)cc1)c1nn(Cc2ccccc2)c(=O)c2ccccc12 | 0.4 | 1.2 | 1 | 13 | -5.9 | -7 | 10 | 5.3
COC(=O)c1cc(=O)nc2sc(-c3ccccc3)nn12 | -7.5 | -0.5 | -17 | 0 | 1.0 | -14 | -8 | -1.8
Cc1ccc(C)c(N/N=C2\CCCNC2=O)c1 | 0.7 | -0.2 | -12 | -7 | 1.0 | -7 | -1 | .
COc1ccc(-c2nc(CN3CCN(c4ncccn4)CC3)c(C)o2)cc1C | 0.8 | -0.3 | 5 | -6 | 0.4 | 0 | 3 | 1.1
COc1ccc(C(=O)N2CCN(S(=O)(=O)c3ccc(Cl)cc3)CC2)cc1OC | -3.5 | -5.3 | -8 | 0 | -1.2 | -7 | -5 | 3.5
C/C(=N/O)c1no[n+]([O-])c1/C(C)=N\O | 2.7 | -2.2 | 14 | -5 | -0.3 | -4 | -15 | .
COc1ccc(S(=O)(=O)Nc2ccccc2C(=O)Nc2nc(-c3ccc(F)cc3)cs2)cc1OC | 7.0 | . | 23 | 29 | 0.0 | 46 | -9 | -61
N#Cc1ccc(-n2nccc2-c2cnc3n(c2=O)CCS3)cc1 | 2.5 | 0.1 | 2 | -13 | -0.2 | -1 | 0 | -0.6
CC(CCc1ccccc1)NC(=O)CN1CCN(Cc2ccc(Cl)cc2)C1=O (configuration not stated) | 1.9 | 2.4 | 4 | 4 | 0.4 | 1 | 5 | 6.1
O=C(CSc1nc2c(c(=O)[nH]1)CCC2)Nc1ccc(F)cc1 | -0.6 | -0.2 | 11 | -3 | 0.2 | -7 | -10 | 5.8
CCCCN(C(=O)c1ccc(OC(F)(F)F)cc1)c1c(N)n(CCC)c(=O)[nH]c1=O | 0.0 | -6.3 | 63 | 7 | -0.6 | -6 | -2 | 3.5
CCN1CCN(C(=O)C2CCCN(c3ncnc4c3nc3n4CCCCC3)C2)CC1 (configuration not stated) | 0.0 | 2.3 | 6 | 3 | -0.3 | 1 | -8 | 0.5
O=C(CCNC(=O)c1ccco1)Nc1ccc(N2CCOCC2)cc1 | -5.5 | 1.5 | 12 | 7 | 0.3 | -1 | -5 | 0.6
COc1ccc(C/C(N)=N/n2cnnc2)cc1Cl | -1.2 | -0.9 | -2 | 6 | 0.4 | 0 | -14 | 7.6
COc1ccc(COC(=O)C2CCN(C(=O)c3ccc(Cl)cc3)CC2)cc1F | . | 4.2 | . | 1 | -1.3 | -3 | . | 3.5
O=C1CSC(=Nc2ccc(O)cc2)N1 | 0.6 | -8.8 | 1 | 0 | 1.1 | . | -9 | 4.3
COc1nccnc1NS(=O)(=O)c1ccc(NC(=S)NC(=O)c2cccnc2)cc1 | 3.0 | -0.1 | -2 | 5 | -4.0 | 0 | -9 | 3.3
CCOC(=O)c1ccc(N2C(=O)C3CCCN3C2=S)cc1 (configuration not stated) | . | -14 | . | -1 | 2.1 | -11 | . | 2.9
Cc1ccc(S(=O)(=O)N2CCOCC2)cc1C(=O)NCCc1ccc(Cl)cc1 | . | 3.0 | . | -5 | 0.1 | 3 | . | 0.8
O=C(COc1ccccc1[N+](=O)[O-])N1CCC(Cc2ccccc2)CC1 | -4.6 | 0.0 | 10 | -13 | 0.4 | -6 | 13 | -0.4
O=C(COc1ccc(F)cc1)N(Cc1ccc(Cl)cc1)C1CCS(=O)(=O)C1 (configuration not stated) | -0.5 | 6.5 | 10 | 10 | 0.0 | -4 | 0 | -0.2
NC(=O)c1ccc(-n2nnnc2Oc2ccccc2)cc1 | -4.3 | 0.3 | 27 | -9 | 0.1 | -8 | -13 | -0.2
Cc1ccc(NC(=O)CNC(C)c2ccccc2)cc1 (configuration not stated) | 1.5 | 1.1 | 3 | 5 | -0.5 | -10 | 22 | 6.5
CC1(C)CC(CCC(=O)Nc2ccc(S(N)(=O)=O)cc2)C(=O)O1 (configuration not stated) | ? | -3.6 | -10 | 2 | 0.0 | -1 | 4 | 6.9
COC(=O)c1ccc(C2/C(=C(/O)c3ccc4c(c3)CC(C)O4)C(=O)C(=O)N2Cc2cccnc2)cc1 (configuration not stated) | 0.9 | -1.7 | -1 | 1 | -0.8 | 0 | -9 | 12
CN(C)S(=O)(=O)c1ccc(C(=O)Nc2ccc3ncccc3c2)cc1 | 2.3 | 0.6 | -5 | -1 | -0.4 | -5 | 1 | 4.2
COc1ccc(-c2csc(NC(=O)CN3C(=O)C4CCCCC4C3=O)n2)cc1OC (configuration not stated) | 6.9 | -5.3 | 21 | 6 | -0.4 | -1 | 1 | 3.4
O=C(COc1ccc(Br)cc1Cl)N1CCN(c2ccccn2)CC1 | -1.6 | -0.8 | 1 | -13 | -0.8 | . | 6 | -1.2
COc1ccc(C(=O)NNC2CC(=O)N(Cc3ccccc3)C2=O)cc1OC (configuration not stated) | 2.9 | -0.2 | -16 | 0 | 0.9 | -8 | -28 | 0.2
CCCSc1cc(Cl)nc(N)n1 | -3.5 | 5.3 | -14 | -3 | -0.5 | -4 | -7 | 1.2
Cn1c(CNC2CCCCC2)nc2ccccc21 | 0.3 | -3.3 | 5 | 3 | -0.3 | -4 | -17 | 0.2
